# Env fusion inh – blocks HIV Env-driven cell-cell fusion. HeLa-JRFL Env/CEM21 cell fusion, luciferase. inhibition, % at 12.3 µM. 1.1% of 360,000 active;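 active means mean replicate inhibition score of at least 50 and every replicate individually at or above 50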;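 further: 0% = plate neutral controls and 100% = maraviroc near 300 nM; one replicate is shown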
# UUG fidelity – modulators of start codon recognition fidelity in yeast; S. cerevisiae UUG-firefly luciferase reporter, luminescence/redox ratio; activity score, % at 18.7 µM; 0.13% of 350,000 active;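 active means replicate mean at a twofold rise or more, about +100% in these data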;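 further: firefly luciferase made from a UUG start codon reports start codon fidelity; reporter light over untreated wells divided by growth signal over untreated wells; some hits fall short of that in this replicate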
# An asterisk follows results filed as active; [ ] = remark or other dose. Some of the compounds tested; rates above refer to the full screens.
structure	Env fusion inh	UUG fidelity
Cc1noc(C)c1S(=O)(=O)Nc1cccc2c1O[C@H](CN(C)S(=O)(=O)c1cccs1)[C@H](C)CN([C@H](C)CO)C2=O	18[16.7 µM]	0
C[C@@H]1CCCCO[C@H](CN(C)C(=O)Nc2ccc(C(F)(F)F)cc2)[C@H](C)CN([C@@H](C)CO)C(=O)c2cc(NC(=O)Nc3ccccc3)ccc2O1	30[16.7 µM]	-8
CC(=O)N(C)C[C@H]1Oc2ncc(-c3ccc(F)cc3)cc2C(=O)N([C@@H](C)CO)C[C@H]1C	-9[16.7 µM]	-1
C[C@@H]1CN([C@@H](C)CO)S(=O)(=O)c2ccc(C#CC3CC3)cc2O[C@H]1CN(C)Cc1ccccc1F	26[16.7 µM]	9
COc1ccc(C(=O)Nc2ccc3c(c2)C(=O)N(C)C[C@H](OC)[C@H](C)CN[C@H](C)CO3)cc1	5[16.7 µM]	-5
CO[C@H]1CN(C)C(=O)c2ccc(NS(C)(=O)=O)cc2OC[C@H](C)N(C(=O)C2CCOCC2)C[C@H]1C	5[16.7 µM]	3
COc1ccc(NC(=O)Nc2ccc3c(c2)[C@H]2C[C@H](CC(=O)N4CCc5ccccc5C4)O[C@@H](CO)[C@H]2O3)cc1	-2[16.7 µM]	-4
CC(C)NC(=O)N(C)C[C@H]1Oc2ncc(C#CC3CCCCC3)cc2C(=O)N([C@@H](C)CO)C[C@@H]1C	2[16.7 µM]	23
CC(=O)N(C)C[C@H]1Oc2cc(C#CCN(C)C)ccc2S(=O)(=O)N([C@H](C)CO)C[C@@H]1C	4[16.7 µM]	-3
CC(=O)N[C@@H]1C=C[C@@H](CC(=O)NCc2ccc(Cl)cc2)O[C@H]1CO	8[16.7 µM]	1
Cc1ccccc1S(=O)(=O)N1C[C@@H](O)COC[C@@H]2O[C@@H](CC(=O)N3CCN(C)CC3)CC[C@H]21	-8[16.7 µM]	-3
C[C@@H]1CCCCO[C@@H](CN(C)S(=O)(=O)c2cccs2)[C@H](C)CN([C@@H](C)CO)C(=O)c2cc(NC(=O)c3ccccc3)ccc2O1	14[16.7 µM]	-3
C[C@@H]1CN([C@H](C)CO)C(=O)Cc2cc(NS(C)(=O)=O)ccc2O[C@H]1CN(C)Cc1ccc2c(c1)OCO2	16[16.7 µM]	-5
COc1ccc(S(=O)(=O)Nc2ccc3c(c2)C(=O)N([C@@H](C)CO)C[C@H](C)[C@@H](CN(C)Cc2ccc(Cl)c(Cl)c2)O3)cc1	-12[16.7 µM]	10
Cc1ccc(-c2ccc3c(c2)O[C@@H](CN(C)Cc2cncnc2)[C@@H](C)CN([C@H](C)CO)S3(=O)=O)cc1	19[16.7 µM]	135*
C/C=C/c1ccc2c(c1)O[C@@H](CN(C)Cc1ccc(F)cc1)[C@H](C)CN([C@H](C)CO)S2(=O)=O	37[16.7 µM]	7
COc1ccccc1CNC(=O)C[C@H]1C=C[C@@H](NC(C)=O)[C@H](CO)O1	14[16.7 µM]	-18
C[C@@H]1CN([C@@H](C)CO)C(=O)Cc2cc(NC(=O)Nc3ccc(C(F)(F)F)cc3)ccc2O[C@H]1CN(C)Cc1ccc(C(=O)O)cc1	0[16.7 µM]	-2
O=C(CN1CCOCC1)NCC[C@@H]1CC[C@H](NC(=O)Nc2ccccc2)[C@H](CO)O1	11[16.7 µM]	-6
Cc1noc(C)c1NC(=O)N(C)C[C@@H]1Oc2cc(C#CCN(C)C)ccc2S(=O)(=O)N([C@@H](C)CO)C[C@H]1C	-4[16.7 µM]	12
C[C@@H]1CCCCO[C@@H](CN(C)Cc2ccc3c(c2)OCO3)[C@H](C)CN([C@@H](C)CO)C(=O)c2cc(NC(=O)Cc3ccccc3)ccc2O1	13[16.7 µM]	30
COc1ccc(NC(=O)Nc2ccc3c(c2)CC(=O)N([C@H](C)CO)C[C@@H](C)[C@H](CN(C)C(=O)Nc2c(C)noc2C)O3)cc1	-3[16.7 µM]	-7
COc1ccc(S(=O)(=O)Nc2ccc3c(c2)C(=O)N([C@H](C)CO)C[C@H](C)[C@@H](CN(C)C(=O)NC2CCCCC2)OCCCC[C@H](C)O3)cc1	-179[16.7 µM]	12
CCCN(C)C[C@H]1Oc2cc(C#CC3CCCC3)ccc2S(=O)(=O)N([C@H](C)CO)C[C@H]1C	23[16.7 µM]	2
Cc1ccccc1-c1ccc2c(c1)O[C@@H](CN(C)C(=O)Nc1ccc(C(F)(F)F)cc1)[C@H](C)CN([C@H](C)CO)S2(=O)=O	32[16.7 µM]	3
COc1ccc(S(=O)(=O)N(C)C[C@@H]2Oc3ccc(NC(=O)C4CCCCC4)cc3C(=O)N([C@H](C)CO)C[C@H]2C)cc1	23[16.7 µM]	14
O=C(N[C@H]1CC[C@@H](CCn2cc(-c3ccccn3)nn2)O[C@@H]1CO)c1cccnc1	-82[16.7 µM]	-10
C[C@@H]1CN([C@@H](C)CO)C(=O)c2cccc(NC(=O)NC3CCCCC3)c2O[C@@H]1CN(C)C(=O)Nc1ccc(C(F)(F)F)cc1	-28[16.7 µM]	9
C[C@@H]1CN([C@@H](C)CO)S(=O)(=O)c2ccc(C#CC3CCCC3)cc2O[C@H]1CN(C)C(=O)Cc1ccncc1	-13[16.7 µM]	18
CO[C@H]1CN(C)C(=O)c2cc(NS(C)(=O)=O)ccc2OC[C@H](C)N(C(=O)CN(C)C)C[C@@H]1C	12[16.7 µM]	-1

# Part of the list above, set out differently.
> CC(C)NC(=O)N(C)C[C@H]1Oc2ncc(C#CC3CCCCC3)cc2C(=O)N([C@@H](C)CO)C[C@@H]1C
  Env fusion inh: 2[16.7 µM]
  UUG fidelity: 23
> CC(=O)N(C)C[C@H]1Oc2cc(C#CCN(C)C)ccc2S(=O)(=O)N([C@H](C)CO)C[C@@H]1C
  Env fusion inh: 4[16.7 µM]
  UUG fidelity: -3
> CC(=O)N[C@@H]1C=C[C@@H](CC(=O)NCc2ccc(Cl)cc2)O[C@H]1CO
  Env fusion inh: 8[16.7 µM]
  UUG fidelity: 1
> Cc1ccccc1S(=O)(=O)N1C[C@@H](O)COC[C@@H]2O[C@@H](CC(=O)N3CCN(C)CC3)CC[C@H]21
  Env fusion inh: -8[16.7 µM]
  UUG fidelity: -3

# New compounds follow:
structure	Env fusion inh	UUG fidelity
COc1ccc(S(=O)(=O)Nc2cccc3c2O[C@@H](CN(C)C(=O)Nc2ccc(C(F)(F)F)cc2)[C@H](C)CN([C@H](C)CO)C3=O)cc1	24[16.7 µM]	6
CCC(=O)N(C)C[C@@H]1Oc2ncc(-c3ccc(C)cc3)cc2C(=O)N([C@H](C)CO)C[C@H]1C	1[16.7 µM]	-1
C[C@@H]1CCCCO[C@H](CN(C)C(=O)NC2CCCCC2)[C@@H](C)CN([C@H](C)CO)C(=O)c2cc(NC(=O)Nc3ccc(C(F)(F)F)cc3)ccc2O1	9[16.7 µM]	-17
COCC#Cc1cnc2c(c1)C(=O)N([C@@H](C)CO)C[C@H](C)[C@H](CN(C)C(=O)NC1CCCC1)O2	-16[16.7 µM]	28
COc1ccc(NC(=O)Nc2ccc3c(c2)[C@@H]2C[C@H](CC(=O)N4CCOCC4)O[C@@H](CO)[C@@H]2O3)cc1	7[16.7 µM]	2
Cc1noc(C)c1S(=O)(=O)Nc1ccc2c(c1)CC(=O)N([C@@H](C)CO)C[C@H](C)[C@@H](CN(C)C(=O)Nc1ccc3c(c1)OCO3)O2	9[16.7 µM]	9
CCC(=O)N1C[C@@H](C)[C@@H](OC)CN(C)C(=O)c2ccc(NC(=O)c3ccno3)cc2OC[C@@H]1C	-7[16.7 µM]	4
CCCN(C)C[C@H]1Oc2cc(C#CC3CC3)ccc2S(=O)(=O)N([C@@H](C)CO)C[C@H]1C	-2[16.7 µM]	-11
CN(C)CCCNC(=O)C[C@H]1CC[C@@H](NC(=O)Cc2cccnc2)[C@@H](CO)O1	-15[16.7 µM]	-26
C[C@@H]1CCCCO[C@@H](CN(C)S(=O)(=O)c2ccc(F)cc2)[C@@H](C)CN([C@@H](C)CO)C(=O)c2cc(NS(=O)(=O)c3ccccc3)ccc2O1	-5[16.7 µM]	13
COCC#Cc1ccc2c(c1)O[C@H](CN(C)CC1CCOCC1)[C@@H](C)CN([C@H](C)CO)S2(=O)=O	-17[16.7 µM]	30
C[C@@H]1CCCCO[C@@H](CN(C)Cc2ccccc2)[C@@H](C)CN([C@H](C)CO)C(=O)c2cc(NC(=O)CCCN(C)C)ccc2O1	2[16.7 µM]	0
CNC[C@@H]1Oc2ccc(NC(=O)Nc3ccc(OC)cc3)cc2C(=O)N([C@H](C)CO)C[C@H]1C	17[16.7 µM]	1
CC(C)NC(=O)N(C)C[C@@H]1OCCCC[C@@H](C)Oc2ccc(NC(=O)Nc3ccc(F)cc3)cc2C(=O)N([C@@H](C)CO)C[C@H]1C	-3[16.7 µM]	7
C[C@H]1CN([C@@H](C)CO)C(=O)c2cc(NC(=O)CCN3CCOCC3)ccc2O[C@H]1CN(C)S(C)(=O)=O	6[16.7 µM]	15
C[C@@H]1CCCCO[C@@H](CN(C)C(=O)C2CCCCC2)[C@@H](C)CN([C@@H](C)CO)C(=O)c2cc(NC(=O)Nc3ccc4c(c3)OCO4)ccc2O1	-52[16.7 µM]	-5
CN(C)CC(=O)N1[C@H](CO)[C@@H](c2ccc(-c3ccc(C(=O)N(C)C)cc3)cc2)[C@@H]1C#N	-25[16.7 µM]	2
CO[C@@H]1CN(C)C(=O)c2cc(NC(=O)Nc3cc(F)ccc3F)ccc2OC[C@@H](C)N(C)C[C@@H]1C	1[16.7 µM]	5
C[C@@H]1CN([C@@H](C)CO)S(=O)(=O)c2ccc(C3=CCCCC3)cc2O[C@H]1CN(C)C(=O)C1CCC1	13[16.7 µM]	21
COCCNC(=O)C[C@H]1CC[C@@H]2[C@H](COc3ccc(NC(=O)COC)cc3C(=O)N2C)O1	-1[16.7 µM]	10
CCC(=O)N(C)C[C@H]1Oc2cc(C#Cc3ccncc3)ccc2S(=O)(=O)N([C@@H](C)CO)C[C@H]1C	-32[16.7 µM]	22
C[C@H](CO)N1C[C@H](C)[C@@H](CN(C)C(=O)c2ccccc2)OCCCC[C@H](C)Oc2ccc(NS(C)(=O)=O)cc2C1=O	6[16.7 µM]	11
COc1ccc(CNC(=O)C[C@@H]2CC[C@H](NC(=O)Nc3ccc4c(c3)OCO4)[C@@H](CO)O2)cc1	2[16.7 µM]	2
Cc1noc(C)c1S(=O)(=O)Nc1cccc2c1O[C@H](CN(C)Cc1ccc(Oc3ccccc3)cc1)[C@H](C)CN([C@@H](C)CO)C2=O	-13[16.7 µM]	1
C[C@H]1CN([C@@H](C)CO)C(=O)c2cc(NS(=O)(=O)c3ccc(Cl)cc3)ccc2O[C@@H]1CN(C)S(C)(=O)=O	11[16.7 µM]	-7
C[C@@H]1CCCCO[C@H](CN(C)C)[C@@H](C)CN([C@H](C)CO)C(=O)c2cc(NC(=O)CCCN(C)C)ccc2O1	-2[16.7 µM]	9
CCC(=O)Nc1ccc2c(c1)C(=O)N(C)[C@@H]1CC[C@H](CC(=O)NC3CCCC3)O[C@@H]1CO2	19[16.7 µM]	-14
C[C@@H]1CCCCO[C@H](CN(C)C(=O)Cc2ccccc2)[C@@H](C)CN([C@H](C)CO)C(=O)c2cc(NC(=O)CCCN(C)C)ccc2O1	9[16.7 µM]	-6
CCCNC(=O)N1[C@@H](C#N)[C@H](c2ccc(-c3cccc(OC)c3)cc2)[C@@H]1CO	39[16.7 µM]	-11
CCC(=O)N(C)C[C@@H]1Oc2cc(C#Cc3ccccn3)ccc2S(=O)(=O)N([C@@H](C)CO)C[C@H]1C	-3[16.7 µM]	10
COc1ccc(S(=O)(=O)Nc2cccc3c2O[C@@H](CN(C)Cc2ccc(Oc4ccccc4)cc2)[C@@H](C)CN([C@@H](C)CO)C3=O)cc1	2[16.7 µM]	13
C[C@@H]1CCCCO[C@H](CN(C)Cc2ccc(C(F)(F)F)cc2)[C@@H](C)CN([C@H](C)CO)C(=O)c2cc(N(C)C)ccc2O1	9[16.7 µM]	1
COc1cccc(CNC(=O)C[C@@H]2CC[C@@H]3[C@@H](COc4ccc(NC(C)=O)cc4C(=O)N3C)O2)c1	-15[16.7 µM]	-2
CCC(=O)Nc1ccc2c(c1)C(=O)N(C)[C@@H]1CC[C@@H](CC(=O)NCc3ccc(OC)cc3)O[C@@H]1CO2	-17[16.7 µM]	1
CC(C)NC(=O)Nc1ccc2c(c1)C(=O)N([C@H](C)CO)C[C@H](C)[C@@H](CN(C)C(=O)Nc1ccc(C(F)(F)F)cc1)OCCCC[C@H](C)O2	44[16.7 µM]	-10
C[C@H](CO)N1C[C@H](C)[C@H](CN(C)S(=O)(=O)c2ccccc2)Oc2ccc(NS(=O)(=O)c3cn(C)cn3)cc2C1=O	4[16.7 µM]	-6
CNC[C@H]1Oc2c(NC(=O)C3CCOCC3)cccc2C(=O)N([C@@H](C)CO)C[C@H]1C	15[16.7 µM]	-8
Cc1ccc(S(=O)(=O)N(C)C[C@@H]2OCCCC[C@@H](C)Oc3ccc(NS(=O)(=O)c4ccccc4)cc3C(=O)N([C@@H](C)CO)C[C@H]2C)cc1	9[16.7 µM]	13
CO[C@H](CCO)[C@H](O)c1ccc(O)c(F)c1	3[16.7 µM]	26
O=C(N[C@@H]1CC[C@H](CCn2cc(-c3ccccc3)nn2)O[C@@H]1CO)c1cnccn1	-6[16.7 µM]	-8

# Assay outcomes deposited in PubChem by Broad Institute.
